Assay outcomes as filed in PubChem.
miR-21 FLuc: qHTS Assay for Modulators of miRNAs and/orActivators of miR-21 | HeLa miR-21 FLuc reporter, luciferase, 48 h | Potency, µM (top dose mostly 38.3 µM), without a hit: at the top dose reporter change, positive = more light | 340,000 tested, under 10 active; active = well fitted rising curve with a large enough effect; inconclusive = small, poorly fitted or top-dose-only effect; inactive = no such curve, though single readings can be large or run the other way;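 note: % of control where 0% means no effect; miR-21 action dims this reporter so a rising signal means less miR-21 action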
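Luminescence from a firefly luciferase reporter carrying a miR-21 binding site downstream, stably expressed under a CMV promoter in HeLa cells that make miR-21 endogenously, reports miRNA modulation after 48 h compound exposure up to approximately 40uM final.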
Rango complex inh: qHTS Assay for Inhibitors of Rango (Ran-regulated importin-beta cargo) - Importin beta complex formation. 340,000 tested, 0.031% active. Importin subunit beta-1 (Homo sapiens), Q14974. Potency, µM (doses to about 92.2 µM), for the others: top-dose inhibition of complex formation. Rango CFP/YFP FRET sensor + importin beta, 45 min; active = rising FRET ratio curve, often small or poorly fitted; inconclusive = mostly compound fluorescence or quenching in the first reads; inactive = flat curves in all reads;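 note: potency is the fitted concentration of half-maximal effect; 0% = DMSO wells and 100% = buffer wells lacking importin beta; nearly all actives have a fitted effect of over 15% in size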
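FRET biosensor Rango (snurportin 1 IBB between N-terminal EYFP and C-terminal Cerulean), 50 nM in PBS/1 mM DTT/0.02% Tween-20/0.1% BSA, preincubated 5 min RT with compound; 0.125 microM importin beta added, 45 min RT, CFP/YFP FRET ratio read.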
GLA inh pH 4.5: qHTS Assay for Inhibitors of Human alpha-Galactosidase at pH 4.5. purified enzyme, 4-MU-alpha-Gal fluorescence, pH 4.5. 230,000 tested, under 10 active. AID 1467, 2008. activity change, negative = inhibition, % at 105 µM; inconclusive = small, poorly fitted or top-dose-only inhibition, or a rising curve; inactive = flat fitted curve, though single readings scatter; no compound was filed as active;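 note: 0% = full activity with enzyme and -100% = basal without enzyme; dose as in the result columns while the protocol names 77 µM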
Target sequence (P06280 whole entry, looked up): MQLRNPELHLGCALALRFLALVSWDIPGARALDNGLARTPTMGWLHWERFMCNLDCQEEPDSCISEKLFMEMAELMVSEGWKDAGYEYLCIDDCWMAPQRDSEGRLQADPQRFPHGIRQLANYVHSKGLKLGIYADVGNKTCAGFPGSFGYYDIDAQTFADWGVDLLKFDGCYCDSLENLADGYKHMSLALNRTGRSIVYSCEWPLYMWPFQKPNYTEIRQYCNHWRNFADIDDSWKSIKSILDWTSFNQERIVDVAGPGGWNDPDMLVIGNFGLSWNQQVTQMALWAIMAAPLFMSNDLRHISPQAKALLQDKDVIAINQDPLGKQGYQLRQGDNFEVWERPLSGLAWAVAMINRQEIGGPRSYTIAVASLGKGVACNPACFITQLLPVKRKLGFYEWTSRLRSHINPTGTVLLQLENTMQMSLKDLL
Rango release inh: qHTS Assay for Inhibitors of RanGTP induced Rango (Ran-regulated importin-beta cargo) - Importin beta complex dissociation. Snurportin-1 (Homo sapiens) + GTP-binding nuclear protein Ran (Homo sapiens) + Importin …. Biochemical FRET Rango-importin beta, RanGTP-induced dissociation. Potency, µM (doses to about 46.1 µM), for inactives: at the highest dose activity change, negative = inhibition. 340,000 tested, 0.071% active; active means falling FRET ratio curve, often poorly fitted, with flat reads before Ran was added; inconclusive means other falling curves, or compound fluorescence or quenching; inactive means flat or rising ratio curve;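 note: potency is the fitted concentration of half-maximal effect; % of control where 0% means no effect; nearly all actives have a fitted effect of over 45% in size; -100% = wells without RanGTP and RCC1; the record marks most hits as doubtful in a second field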
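Recombinant Rango FRET biosensor (EYFP–snurportin 1 IBB–cerulean CFP10) at 0.1 uM premixed with 0.25 uM importin beta in PBS, 1 mM DTT, 0.02% Tween-20, 0.1% BSA. Compound added 5 min; RanGTP-RCC1 (0.6 uM Ran, 2 mM GTP, 0.2 uM RCC1) then triggers release, read at 45 min.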
The depositor's hits bear a star; ? = inconclusive; / = no result given; & = joins results of further samples; [ ] = dose if it differs, or a comment. These rows are one share of the data; the hit share may differ from the screen's.

SMILES | miR-21 FLuc | Rango complex inh | GLA inh pH 4.5 | Rango release inh
CCOc1ccccc1N1CC(C(=O)NC2CCCCCC2)CC1=O (stereo not given) | / | 4.1% | / | -13%
Cc1ccc(N(CCC(=O)O)S(=O)(=O)c2ccc(C)cc2)cc1 | -1% | 0.0% | -19 | 8%
CC(=O)Oc1ccc(C2(C)CC(C)(C)Oc3cc(OC(C)=O)ccc32)c(OC(C)=O)c1 (stereo not given) | 6% | -0.3% | / | 0%
Cc1ccc(C)c(S(=O)(=O)N2CCN(C(=O)c3sccc3C)CC2)c1 | / | -0.7% | / | -4%
Cc1ccc(NC(=S)N2CCN(S(=O)(=O)c3ccc(F)cc3)CC2)cc1 | -4% | 11% | / | 2%
NS(=O)(=O)c1ccc(CNC(=O)/C=C/c2cccc(Cl)c2)cc1 | -6% | 0.9% | 0 | 34%
Cc1ccc(C(=O)COc2ncnc3cc(Cl)ccc23)cc1 | -11% | 0.7% | 4 | 2%
COc1ccc(OCCCC(=O)Nc2cc(Cl)ccc2-n2cncn2)cc1 | / | -4.3% | / | -5%
COc1cc(/C=N/NC(=O)c2cccnc2)cc2c1OCO2 | 2% | 1.0% | / | 2%
Cc1ccc(C)c(NC(=S)N2CCN(c3ccccn3)CC2)c1 | -1% | -0.1% | / | -5%
CCC(=O)c1ccc(OCC(=O)OCC(=O)N2c3ccccc3NC(=O)C2(C)C)cc1 | / | -3.6% | / | 9%
Cc1ccc(C2(C)NC(=O)N(CC(=O)N3CCN(C(=O)c4cccs4)CC3)C2=O)cc1 (stereo not given) | / | 1.4% | / | 6%
CC(=O)N(CC1CCCO1)C1(C(=O)NC2CCCC2)CCCCC1 (stereo not given) | -1% | 3.9% | 3 | -12%
COc1cccc(NC(=O)CN(C)C(=O)c2ccc(N3CCCCC3)c([N+](=O)[O-])c2)c1 | / | -0.8% | / | -8%
CS(=O)(=O)N(CC(=O)N1CCOCC1)c1ccc(Cl)cc1 | -2% | 1.7% | / | 15%
O=C(CCCCCNC(=O)N1CCn2c1nc1ccccc12)N[C@@H](Cc1ccccc1)C(=O)O | 2% | 0.6% | / | 2%
O=C1NC[C@H](c2ccccc2)OC(=O)[C@H](Cc2ccc(F)cc2)CC/C=C/C[C@H]1CC(=O)N(CCO)Cc1ccccc1 | / | 2.8% | / | -11%
COc1ccc(/C=C(/C#N)C(=O)Nc2cc(C)ccc2C)cc1C(=O)O | -6% | -1.4% | -10 | 0%
CCCN(CCC)CC(O)COc1ccc2c(c1)OCO2 (stereo not given) | -2% | -0.8% | -1 | -4%
CCC(c1nnnn1C1CCCCC1)N1CCN(C(=O)c2ccco2)CC1 (stereo not given) | -4% | -0.9% | / | 14%
CC(=O)OC1CCC2(C)C3=CCC4(C)C(C(C)=O)=CCC4C3CCC2C1 (stereo not given) | / | 3.9% | / | 1%
Cc1ccc(NC(=O)N(C2CCCCC2)C(C)c2cccnc2)cc1C (stereo not given) | -14% | ? | -6 | 24%
CCCc1ccc(OCC(=O)NNC(=S)NC(=O)c2ccco2)cc1 | 19% | 0.0% | -3 | 1%
COCc1cc(C)nc(N/N=C/c2ccc(-c3ccc(C(=O)O)c(Cl)c3)o2)c1C#N | -5% | / | 2 | /
COc1ccc(/C=N/Nc2nnc(Cc3ccc(OC)c(OC)c3)c(=O)[nH]2)cc1 | -5% | -1.0% | -8 | 3%
COc1ccc(/C=N/N=C(\N)c2nonc2N)cc1 | -49% | 0.8% | 2 | 20%
CCN1C(C)=C(C)S/C1=C1\SC(=S)N(NC(C)=O)C1=O | 3% | ? | -8 | ?
COc1ccc(NC(=O)C2C3C=CC(C3)C2C(=O)NCc2ccco2)c(OC)c1 (stereo not given) | -9% | -0.1% | 3 | -13%
Cc1nnc2n(Cc3ccccc3)c(=O)c3c4c(sc3n12)CN(Cc1ccccc1)CC4 | 2% | / | 3 | /
Cc1ccc(Oc2ncccc2NC(=O)CC2(CC(=O)O)CCCC2)c2c1CCC2 | 7% | 0.0% | 3 | -16%

Part of the list above, with the structure last.
miR-21 FLuc	Rango complex inh	GLA inh pH 4.5	Rango release inh	molecule
2%	0.6%	/	2%	O=C(CCCCCNC(=O)N1CCn2c1nc1ccccc12)N[C@@H](Cc1ccccc1)C(=O)O
/	2.8%	/	-11%	O=C1NC[C@H](c2ccccc2)OC(=O)[C@H](Cc2ccc(F)cc2)CC/C=C/C[C@H]1CC(=O)N(CCO)Cc1ccccc1
-6%	-1.4%	-10	0%	COc1ccc(/C=C(/C#N)C(=O)Nc2cc(C)ccc2C)cc1C(=O)O
-2%	-0.8%	-1	-4%	CCCN(CCC)CC(O)COc1ccc2c(c1)OCO2 (stereo not given)
-4%	-0.9%	/	14%	CCC(c1nnnn1C1CCCCC1)N1CCN(C(=O)c2ccco2)CC1 (stereo not given)
/	3.9%	/	1%	CC(=O)OC1CCC2(C)C3=CCC4(C)C(C(C)=O)=CCC4C3CCC2C1 (stereo not given)
-14%	?	-6	24%	Cc1ccc(NC(=O)N(C2CCCCC2)C(C)c2cccnc2)cc1C (stereo not given)
19%	0.0%	-3	1%	CCCc1ccc(OCC(=O)NNC(=S)NC(=O)c2ccco2)cc1
-5%	/	2	/	COCc1cc(C)nc(N/N=C/c2ccc(-c3ccc(C(=O)O)c(Cl)c3)o2)c1C#N
-5%	-1.0%	-8	3%	COc1ccc(/C=N/Nc2nnc(Cc3ccc(OC)c(OC)c3)c(=O)[nH]2)cc1
-49%	0.8%	2	20%	COc1ccc(/C=N/N=C(\N)c2nonc2N)cc1

The list continues:
SMILES | miR-21 FLuc | Rango complex inh | GLA inh pH 4.5 | Rango release inh
O=C(Nc1nn(Cc2ccc(Cl)cc2)cc1Br)c1ccc(COc2ccccc2Cl)o1 | 23% | 2.3% | -11 | -11%
Cn1c(=O)[nH]c(=O)c2c1nc(N1CCCCCC1)n2CCSc1nc2ccccc2[nH]1 | -1% | -3.0% | 0 | 2%
CC(=O)N1CCCc2cc(S(=O)(=O)N3CCCC(C(=O)NCc4ccc(Cl)cc4)C3)ccc21 (stereo not given) | 21%&25% | -3.5% | / | -7%
O=C(COC(=O)Cc1cccs1)NCC(=O)Nc1ccc(F)cc1 | / | 1.4% | / | -1%
O=C(CCc1nnc(COc2ccccc2)o1)NCc1ccccc1 | -12% | -0.1% | 3 | 1%
CCCCC(=O)N(c1ccc(C)c(C)c1)C1C=CS(=O)(=O)C1 (stereo not given) | 0% | 0.3% | 0 | 12%
CC(C)CC(NC(=O)/C(=C\c1ccco1)NC(=O)c1ccco1)C(=O)O (stereo not given) | -1% | ? | / | ?
CC(=O)NCCC(=O)Nc1cc(S(=O)(=O)N2CCCCC2)ccc1N1CCN(C)CC1 | / | 3.4% | / | 1%
O=C(NCCN1CCOCC1)c1cccn2c(=O)c3c4c(sc3nc12)CCCC4 | -3% | / | -3 | /
CCOc1ccccc1N1CCN(C(=O)c2ccccc2OCc2c(C)noc2C)CC1 | / | -3.9% | / | -14%
COc1cccc2cc(-c3nnc(SCC(=O)Nc4ccc(NC(C)=O)cc4)n3C)oc12 | 0% | -0.3% | / | -6%
CCCCc1nc(Cl)c(C#N)c2c1CCCC2 | -3% | 0.0% | -1 | -1%
NC(=O)c1cc(NC(=O)CCCc2nc3ccccc3s2)cc(C(N)=O)c1 | -13% | 5.3% | -2 | -2%
CC(NC(=O)COC(=O)c1c[nH]c2ccccc12)c1ccccc1 (stereo not given) | / | 2.4% | / | 1%
Cc1cccc(OC(=O)c2sc(Cl)nc2C)c1 | -2% | -4.1% | 8 | -12%
O=C1CCCN1CCC(=O)N1CCCC(N2CCN(c3ccccc3F)CC2)C1 (stereo not given) | 1% | -2.3% | / | -13%
COc1ccc(NC(=O)c2cc3c(=O)n(C)c4ccccc4c3s2)cc1OC | -2% | -2.1% | 0 | -10%
CN(C(=O)c1ccccc1Br)C1CCS(=O)(=O)C1 (stereo not given) | / | 3.9% | / | 21%
Cc1cc(C)c2c(c1)c1nnc(SCCN3CCOCC3)nc1n2C | 0% | 0.9% | / | -1%
COc1ccc2nc(Nc3nc4ccc(NC(C)=O)cc4s3)sc2c1 | -19% | 0.7% | 10 | -9%
CCC(=O)N1CCN(c2ccc(NC(=O)c3cc4ccccc4o3)cc2Cl)CC1 | ? | ? | -10 | 6%
CSc1ccc(Cc2ccc(Cl)cc2Cl)nn1 | -36% | -3.3% | 1 | 0%
COc1ccccc1Cn1c(=S)[nH]c2cc(C(=O)NCC(OC)OC)ccc2c1=O | -2% | 2.3% | / | -10%
COC(=O)c1ccccc1OCCOc1ccccc1C(=O)OC | -11% | -0.2% | 2 | -28%
C=CCNC(=S)NNC(=O)CCC(O)COCCC(C)C (stereo not given) | 4% | -1.6% | 2[21.1 µM] | 10%
COc1ccc(N2CCN(CCNC(=O)CCS(=O)(=O)c3cccc4nsnc34)CC2)cc1 | -6% | / | 2 | /
CCCCN1CCC(=O)C(C(=O)OCC)=C1C(=O)OCC | / | ? | / | -5%
CCC(=O)N(Cc1cc(=O)[nH]c2ccccc12)c1ccc(C)cc1C | -21% | -0.6% | / | -4%
CCOC(=O)CSc1nc2cc(C(=O)NCC3CCCO3)ccc2c(=O)n1Cc1ccco1 (stereo not given) | 2% | -0.4% | 3 | 10%
CCOc1cc(C(=O)Nc2cccc3ncccc23)cc(OCC)c1OCC | 0% | 3.9% | 7 | -2%
Cc1ccc(C(=O)CC2SC(N)=NC2=O)cc1 (stereo not given) | -2% | 1.8% | -10 | -6%
COc1cc(NC(=O)CN(C)S(=O)(=O)c2ccc3c(c2)CC(C)N3C(C)=O)cc(OC)c1 (stereo not given) | 2% | 0.4% | / | 2%
CC(=O)Nc1c(C(=O)N2CCOCC2)cnn1-c1ccc(C)c(C)c1 | -3% | -0.1% | -1 | -6%
COc1ccc2c(c1)C(NS(=O)(=O)OCC(Cl)(Cl)Cl)CCC2 (stereo not given) | -5% | 3.5% | / | 17%
COc1ccc(CNC(=O)C[C@H]2C[C@H](C(=O)N3CCOCC3)[C@@]3(C)c4[nH]c5cc(CCC(=O)N(C)C)ccc5c4CCN3C2=O)cc1OC | / | 0.9% | / | -11%
NC(CC(=O)OC1CCCCC1)C(=O)OC1CCCCC1 (stereo not given) | -1% | -0.8% | -13 | 0%
c1ccc(-c2ccccc2OCCCN2CCOCC2)cc1 | -20% | 1.1% | 8 | 0%
O=C(COC(=O)/C=C/c1cccc(C(F)(F)F)c1)NC(c1ccccc1)c1ccccc1 | -6% | -1.5% | 2 | -5%
CC1=CCC(/C=N\Nc2nnc3c(n2)[nH]c2ccccc23)CC1 (stereo not given) | -39% | / | -6 | /
Cc1ccccc1-c1n[nH]c(=S)n1C | -5% | -2.3% | 0 | 9%
CC(C)Cn1c(/C=N/Nc2nc3ccccc3[nH]2)nc2ccccc21 | -13% | 0.2% | -10 | 17%
COc1ccc2[nH]c(C(=O)NCCCN3CCCC3=O)c(C)c2c1 | -13% | 4.1% | / | 1%
CCCCn1c(N)c(N(C(=O)CSc2nncn2-c2ccccc2C)C2CCCC2)c(=O)[nH]c1=O | / | -0.1% | / | 10%
CN(Cc1ccccc1)C1=CC(=[N+]2CCCCC2)CC(C)(C)C1 | ? | -1.7% | -1 | 12%
COc1ccc(-c2csc(NC(=O)c3ccc(N4C(=O)CCC4=O)cc3)n2)cc1OC | -4% | -1.8% | 8 | 1%
O=C(c1ccc(CS(=O)(=O)c2ccc(Br)cc2)o1)N1CCN(c2ccccn2)CC1 | 17% | 4.5% | -6 | 15%
O=S(=O)(Nc1ccc(S(=O)(=O)N2CCCCC2)cc1)c1ccc(Br)s1 | -4% | -2.7% | -5 | 13%
COc1ccc(CNC(=O)CCN2C(=O)c3ccccc3C2=O)cc1 | 0% | -2.3% | / | -4%
